GLA inh pH 4.5: blocks human alpha-galactosidase A at pH 4.5. P06280. purified enzyme, 4-MU-alpha-Gal fluorescence, pH 4.5. activity change, negative = inhibition, % at 105 µM. 230,000 tested, under 10 active. AID 1467; inconclusive = small, poorly fitted or top-dose-only inhibition, or a rising curve; inactive = flat fitted curve, though single readings scatter; no compound was filed as active;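 further: 0% = full activity with enzyme and -100% = basal without enzyme; dose as in the result columns while the protocol names 77 µM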
Target sequence (P06280 whole entry, looked up): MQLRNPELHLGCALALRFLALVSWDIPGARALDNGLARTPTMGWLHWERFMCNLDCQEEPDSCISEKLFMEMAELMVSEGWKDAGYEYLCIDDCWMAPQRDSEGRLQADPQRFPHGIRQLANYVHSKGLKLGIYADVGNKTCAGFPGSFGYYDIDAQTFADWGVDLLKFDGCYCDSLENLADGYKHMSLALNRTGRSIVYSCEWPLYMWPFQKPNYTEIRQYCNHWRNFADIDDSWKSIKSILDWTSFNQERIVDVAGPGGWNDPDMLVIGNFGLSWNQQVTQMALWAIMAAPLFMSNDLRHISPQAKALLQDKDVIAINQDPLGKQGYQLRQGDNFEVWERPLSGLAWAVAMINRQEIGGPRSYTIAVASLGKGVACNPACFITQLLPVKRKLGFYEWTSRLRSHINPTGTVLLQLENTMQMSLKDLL
miR-21 reporter: miR-21 reporter, rising signal | HeLa miR-21 FLuc reporter, luciferase, 48 h | Potency, µM (top dose mostly 38.3 µM), for inactives: top-dose reporter change, positive = more light | 340,000 tested, under 10 active | AID 2288; active = well fitted rising curve with a large enough effect; inconclusive = small, poorly fitted or top-dose-only effect; inactive = no such curve, though single readings can be large or run the other way;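 further: % of control where 0% means no effect; miR-21 action dims this reporter so a rising signal means less miR-21 action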
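Compounds were titrated across several concentrations (up to approximately 40 uM) and incubated 48 hours with HeLa miR-21-FLuc reporter cells (miR-21 target sequence downstream of FLuc, endogenous miR-21). Readout was firefly luciferase luminescence after lytic detection reagent.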
Rango release inh: prevents RanGTP from dissociating the Rango-importin beta complex. O95149+P62826. 0.071% of 340,000 active. AID 540253. Biochemical FRET Rango-importin beta, RanGTP-induced dissociation. Potency, µM (series often up to 46.1 µM), inactives show top-dose activity change, negative = inhibition; active means falling FRET ratio curve, often poorly fitted, with flat reads before Ran was added; inconclusive means other falling curves, or compound fluorescence or quenching; inactive means flat or rising ratio curve;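 further: potency means the concentration at half of the fitted maximal effect; % of control where 0% means no effect; nearly all actives have a fitted effect of over 45% in size; -100% = wells without RanGTP and RCC1; the record marks most hits as doubtful in a second field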
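Compounds preincubate 5 min with complex of recombinant Rango and importin beta in PBS with 1 mM DTT. Ran (0.6 uM) loaded with 2 mM GTP plus 0.2 uM RCC1 starts dissociation; FRET is recorded 45 min later.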
Rango complex inh: prevents formation of the Rango-importin beta complex; Q14974; Rango CFP/YFP FRET sensor + importin beta, 45 min; Potency, µM (top dose mostly 92.2 µM), without a hit: top-dose inhibition of complex formation; 0.031% of 340,000 active; AID 540263; active = rising FRET ratio curve, often small or poorly fitted; inconclusive = mostly compound fluorescence or quenching in the first reads; inactive = flat curves in all reads;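 further: potency means the concentration at half of the fitted maximal effect; 0% = DMSO wells and 100% = buffer wells lacking importin beta; nearly all actives have a fitted effect of over 15% in size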
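Inhibition scored from the CFP 486 nm/YFP 530 nm FRET ratio 45 min after adding 0.125 microM importin beta to 50 nM Rango biosensor preincubated 5 min with compound (room temperature, PBS with DTT, Tween-20, BSA). No-importin wells as positive control.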
* = called active by the depositor; ? = inconclusive; · = not tested or not shown; & = joins results of further samples. This is a subset; count on the stated rates, not on these rows.

SMILES	GLA inh pH 4.5	miR-21 reporter	Rango release inh	Rango complex inh
COc1ccc(CN2CC(C(=O)NCCC3=CCCCC3)CC2=O)cc1 (configuration not stated)	-4	2%	3%	-0.3%
Cc1ccc(NC(=O)c2ccco2)c(NC(=O)c2cccs2)c1	0	-15%	39%	-0.5%
COC12NC(=O)N(C)C1(OC)C(=O)N(C)C(=O)N2C (configuration not stated)	-12	-2%	4%	-2.1%
CC(=O)Nc1ccc(Nc2nc(C)nc3c2oc2ccccc23)cc1	-6	-1%	-6%	4.4%
COc1ccc2c(c1)[C@H]1[C@H](CO2)[C@H](c2ccccc2)[C@]2(C)C(=O)Nc3cc(C)ccc3C(=O)N12	·	·	20%	-0.6%
O=C(O)CCC(=O)NNc1ccccc1[N+](=O)[O-]	6	-9%	0%	1.5%
COC(=O)c1cc(-c2c(C)nn(-c3ccccc3)c2C)n[nH]1	6	-30%	3%	-3.0%
Cc1c(NC(NC(=O)CC(C)C)C(Cl)(Cl)Cl)c(=O)n(-c2ccccc2)n1C (configuration not stated)	-9	7%	16%	3.9%
Cc1cccc(C(=O)OCC(=O)NCc2ccc3c(c2)OCO3)c1C	·	·	-3%	-0.1%
Cc1csc(SCC(=O)Nc2nc3ccccc3s2)n1	-7	-41%	4%	3.4%
CC(C)CN1CCNC(=O)C1CC(=O)NCCc1ccc(C(F)(F)F)cc1 (configuration not stated)	4	0%	-12%	-0.5%
Cc1c(-c2ccc(F)cc2)nc(N)c(C#N)c1-c1cccs1	-1	-13%	15%	3.0%
CCCCOC(=O)c1cc(=O)[nH]c(=O)[nH]1	0	3%	-15%	-1.5%
Cc1ccccc1Nc1nc(N)nc(COC(=O)[C@@H](NC(=O)c2c(F)cccc2F)C(C)C)n1	·	·	5%	3.1%
CCN(CC)C(=O)N1c2ccccc2C=Cc2ccccc21	4	?	4%	-3.0%
O=C(Nc1cccc(S(=O)(=O)N2CCCCCC2)c1)c1cc(=O)c2ccccc2o1	-23	5%	5%	2.2%
COc1ccc(NC(=O)CCNS(=O)(=O)c2ccc3c(c2)CCC(=O)N3)cc1	-17	-1%	5%	1.5%
COCCN1C(=O)C(=O)/C(=C(/O)c2ccc(S(=O)(=O)N3CCCCC3)cc2)C1c1ccc(OC)cc1 (configuration not stated)	·	0%	8%	1.1%
CCCn1c(N2CCN(CC(=O)c3c[nH]c4ccccc34)CC2)nc2c1c(=O)[nH]c(=O)n2C	4	-18%	0%	1.0%
CC(=O)Nc1cccc(NC(=O)CSc2nnc3ccc(-c4ccccn4)nn23)c1	·	·	-16%	-2.2%

Reprinted at random: 3 compounds from above.
SMILES	GLA inh pH 4.5	miR-21 reporter	Rango release inh	Rango complex inh
O=C(Nc1cccc(S(=O)(=O)N2CCCCCC2)c1)c1cc(=O)c2ccccc2o1	-23	5%	5%	2.2%
CCCCOC(=O)c1cc(=O)[nH]c(=O)[nH]1	0	3%	-15%	-1.5%
CCN(CC)C(=O)N1c2ccccc2C=Cc2ccccc21	4	?	4%	-3.0%

New compounds follow:
SMILES	GLA inh pH 4.5	miR-21 reporter	Rango release inh	Rango complex inh
CNc1nc2c(C)cccn2c(=O)c1C=Nc1ccc(OC)cc1	9	2%	8%	2.1%
O=C(Cc1c(O)c2ccccc2[nH]c1=O)N(Cc1ccccc1)Cc1ccccc1	-11	3%	-9%	-3.9%
CC(C)c1ccc(/C=C(\NC(=O)c2ccccc2)C(=O)NCCCN2CCOCC2)cc1	2	0%	3%	-0.4%
CCOC(=O)Cc1csc(SCC(=O)N2CCN(c3ccccc3)CC2)n1	·	·	32%	-2.1%
COc1ccc(CCNC(=O)CSc2nnc(CNC(=O)c3ccccc3F)o2)cc1OC	3	3%	1%	0.1%
COC(=O)c1ccc(-c2noc(CN(C)CCC3CCCCO3)n2)cc1 (configuration not stated)	1	?	-8%	-0.7%
CC(C)N(Cc1cc2ccccc2[nH]c1=O)C(=O)C(C)(C)C	4	7%	16%	-0.6%
O=C(O)CCC(=O)NNC(=O)CCC(=O)Nc1ccccc1	-10	1%	-4%	?
Cc1cc(C)c(C)c(Cn2c(CO)nc3ccccc32)c1C	0	-25%	-1%	4.0%
CCOC(=O)C1=C(C)C(c2ccccc2)NC(=S)N1 (configuration not stated)	-11	-3%	-12%	-2.0%
C/C(=N\NC(=O)c1ccccc1O)C1CC1	·	9%	13%	-1.2%
CCCN(CC(=O)Nc1ccccc1OC)C(=O)CNC(=O)c1ccc(C)s1	·	·	-2%	0.9%
CCN(CC(=O)Nc1ccc2c(c1)OCCO2)C(=O)CC1CCCC1	-2	-1%	-1%	3.7%
CC(C)NC(=O)CSc1nc2ccccc2c(=O)n1CCCOC(C)C	-8	2%	-11%	-0.1%
Cc1c(C(=O)N2CCN(Cc3ccccc3)CC2)oc2c1C(=O)CC(C)(C)C2	·	-5%	-13%	-0.7%
COc1ccc(CCc2nc(-c3ccc(-n4cccc4)cc3)no2)cc1	-2	-2%	34%	-1.6%
Cc1ccc(NNC(=O)c2snnc2C)cc1Cl	0	-36%	11%	-1.9%
O=C(O)c1cccc(S(=O)(=O)Nc2ccc(-c3ccccc3)cc2)c1	·	·	10%	0.5%
CCOc1ccc(C2N(c3ccc(Cl)cc3)C(=O)C3CCCN32)cc1OC (configuration not stated)	-7	-16%	-22%	-5.3%
CCOC(=O)C1=C(C)N(CCCC(=O)O)C(=O)NC1c1cccc(OC)c1 (configuration not stated)	·	·	-5%	-1.9%
Cc1ccc(C(=O)CC2(O)C(=O)N(CN3CCOCC3)c3ccccc32)cc1 (configuration not stated)	-4	-11%	8%	-0.8%
O=C(CSc1nnc(CNC(=O)c2ccco2)o1)Nc1ccc(OC(F)(F)F)cc1	·	-1%	1%	1.3%
CCCCS(=O)(=O)NC1=NCN(CCOC(=O)c2ccccc2)CN1	·	·	7%	-1.2%
C=CCc1cccc2cc(C(=O)NC(C)(C)C)c(=O)oc12	3	-10%	13%	-5.2%
Cc1ccc(S(=O)(=O)NCCC(c2ccc(F)cc2)c2ccco2)cc1 (configuration not stated)	0	-7%	-3%	-0.8%
O=C(c1ccc(CS(=O)(=O)c2c(Cl)cccc2Cl)o1)N1CCN(c2ccccn2)CC1	-4	0%	-3%	1.1%
CCC(C(=O)Nc1ccc(C(C)C)cc1)c1ccccc1 (configuration not stated)	-5	1%	-17%	-0.1%
N=C1c2ccccc2CN1NC(=O)c1cccc(S(=O)(=O)N2CCCC2)c1	-11	-4%	7%	-2.0%
COc1ccccc1C(NC(C)=O)c1c(O)ccc2ccc(O)cc12 (configuration not stated)	·	·	-18%	0.5%
COc1ccc(C)cc1S(=O)(=O)N(C)CC(=O)N1CCC(C(N)=O)CC1	10	0%	10%	-5.8%
COc1ccc(N(C)S(=O)(=O)c2c(C)[nH]c(=O)[nH]c2=O)cc1	3	-2%	6%	2.9%
O=C(OCc1c(F)cccc1Cl)c1cnccn1	1	-3%	22%	5.6%
Cc1ccc(NC(=O)c2cc3ccccc3cc2O)cc1	·	-2%	?	?
COc1cccc(OCC(=O)O/N=C(\N)c2ccc(OC)c(OC)c2)c1	-1	-15%	-13%	-0.9%
COc1ccc(Nc2ncnc3c2oc2ccccc23)cc1	2	-55%	-4%	4.3%
Cc1ccc(NC(=S)N/N=C/c2ccc(OCCC(C)C)cc2)c(C)c1	0	5%	7%	1.8%
COc1ccc(Cl)cc1-c1nc(-c2ccc(NC(=O)c3ccncc3)cc2)no1	·	·	-1%	0.3%
CCOc1cc(C=O)ccc1OCC(=O)N1CCCC1	-4	2%	-16%	-3.2%
C=CCNC(=O)CSc1nnc(C(CC)N(C)C)n1C1CCCCC1 (configuration not stated)	1	2%	?	?
COC(=O)c1ccc(C(=O)OC)c(NC(=S)N2CCN(c3cccc(Cl)c3)CC2)c1	-16	-13%	25%	9.0%

Some of the entries so far, with bars between the fields.
mol | GLA inh pH 4.5 | miR-21 reporter | Rango release inh | Rango complex inh
COc1ccc(Nc2ncnc3c2oc2ccccc23)cc1 | 2 | -55% | -4% | 4.3%
Cc1ccc(NC(=S)N/N=C/c2ccc(OCCC(C)C)cc2)c(C)c1 | 0 | 5% | 7% | 1.8%
COc1ccc(Cl)cc1-c1nc(-c2ccc(NC(=O)c3ccncc3)cc2)no1 | · | · | -1% | 0.3%
CCOc1cc(C=O)ccc1OCC(=O)N1CCCC1 | -4 | 2% | -16% | -3.2%
C=CCNC(=O)CSc1nnc(C(CC)N(C)C)n1C1CCCCC1 (configuration not stated) | 1 | 2% | ? | ?
COC(=O)c1ccc(C(=O)OC)c(NC(=S)N2CCN(c3cccc(Cl)c3)CC2)c1 | -16 | -13% | 25% | 9.0%

Next part
SMILES	GLA inh pH 4.5	miR-21 reporter	Rango release inh	Rango complex inh
O=C(c1cc2c(s1)-c1ccccc1OC2)N1CCCC1	?	-13%	26%	-4.0%
COc1ccc(OC)c(C2Nc3nc4ccccc4n3C(C)=C2C(=O)Nc2ccc(C)cc2C)c1 (configuration not stated)	-5	-3%	-10%	0.9%
CCOc1ccc(N(CC(=O)Nc2ccccc2C(=O)NC(C)CC)S(C)(=O)=O)cc1 (configuration not stated)	5	-18%	-17%	4.1%
CCOC(=O)C1(Cc2cccc(OC)c2)CCN(CC(O)CO)CC1 (configuration not stated)	5	0%	-1%	0.4%
CCCNC(=O)c1onc(CSc2ccc(Cl)cc2)c1C(=O)NCCOC	·	·	0%	-0.1%
CCN(CC(=O)Nc1ccc(C)c(F)c1)CC(=O)NC(C)(C)C	3	-3%	17%	0.0%
CCCn1c(SCC(=O)N2CCN(CC)CC2)nc2c1c(=O)n(C)c(=O)n2C	·	1%	-1%	?
O=C(NCC1COCCO1)c1cc(COc2ccc(F)cc2F)on1 (configuration not stated)	·	-1%	1%	0.6%
COc1ccc(OC)c(/C(O)=C/C(=O)C(=O)Nc2cc(C)cc(C)c2)c1	-4	-1%	-14%	3.4%
COc1ccc(CCNC(=O)C2CCN(C(=O)c3ccc([N+](=O)[O-])cc3)CC2)cc1	1	0%	-13%	-1.3%
C/C(=C/c1ccccc1)C(=O)N1CCN(c2ccccc2)CC1	·	-17%	-3%	3.6%
O=C(Cc1ccccc1)Nc1ccc2c(c1)OC1(CCCC1)O2	·	·	-16%	-2.0%
Cc1cccc(OCc2nnc(SCC(=O)N3CC(=O)Nc4ccccc43)o2)c1	0	-2%	3%	-2.1%
COc1ccc(N2CCN(C(=O)C3CCCN(S(=O)(=O)c4ccc5c(c4)oc(=O)n5C)C3)CC2)cc1 (configuration not stated)	·	3%&6%	-1%	-5.7%
Cn1c(Cn2c(=O)sc3ccccc32)nnc1SCC(=O)NCc1ccccc1	-3	-7%	-4%	4.2%
Cc1cc(NC(=O)c2cccc(S(=O)(=O)N3CC(c4ccccc4)CC3=O)c2)no1 (configuration not stated)	1	2%	0%	-0.6%
Cc1cc(C)c2nc(SCCc3ccccc3)nc(C)c2c1	6	-6%	10%	0.2%
O=C(NCC1CCCO1)C1CCCN1C(=O)NC1CCCCC1 (configuration not stated)	8	-5%	-10%	-1.1%
CCCc1cc(=O)[nH]c(SCC(=O)Nc2sc3c(c2C#N)CCCC3)n1	·	-8%	7%	0.5%
Cc1ccc2nc(-c3ccc(NC(=S)NCCC(C)C)cc3)sc2c1	·	·	-10%	?
CCN(CC)S(=O)(=O)c1ccc(/C=C/C(=O)OCC(=O)N(C)C)cc1	3	2%	-10%	2.4%
COc1ccc(S(=O)(=O)Nc2cccc(SC)c2)cc1C(=O)N1CCOCC1	·	0%	-8%	-1.2%
CC(=O)Nc1ccc(NC2=CC(=O)c3ccccc3C2=O)cc1	·	-39%	20%	-0.2%
O=C1c2ccccc2C(=O)c2c(Nc3ccc(CCO)cc3)ccc(O)c21	-7	2%	14%	1.0%
COc1ccc(-c2nc(N)ncc2-c2ccc(Cl)cc2)c(O)c1	·	3%	-6%	-0.4%
Cc1cccc(NC(=S)NCC(c2cccnc2)N2CCOCC2)c1 (configuration not stated)	5	-8%	4%	0.3%
COc1ccc2c(C)c(Cl)c(=O)oc2c1	13	-11%	-10%	-0.7%
C[C@@H]1CN([C@@H](C)CO)C(=O)Cc2cc(NC(=O)Nc3cccc4ccccc34)ccc2O[C@@H]1CN(C)S(C)(=O)=O	·	·	7%	3.0%
CC(=O)c1cccc(S(=O)(=O)Nc2ccccc2N2CCOCC2)c1	·	·	22%	3.5%

High-throughput results (PubChem BioAssay)
